Screens from PubChem.
Vaccinia Venus – inhibitors of vaccinia virus (Venus reporter). Potency, µM (doses to about 36.5 µM), without a hit: at the top dose activity change, negative = inhibition, hits mostly inhibitors. hit rate 0.46% among 330,000. Vaccinia virus Venus reporter expression, fluorescence; active means well fitted inhibition curve with a large enough effect; inconclusive means small, poorly fitted or top-dose-only effect; inactive means no such curve, though single readings can be large or run the other way; tested in A549 cells; note: nearly all actives have a fitted effect of over 30% in size; inactives centre near -10
Vaccinia mCherry – vaccinia inhibition (mCherry reporter); Vaccinia virus mCherry reporter infection, fluorescence; about a quarter of the inactives have no number; hit rate 0.63% among 310,000; Potency, µM (titrated, usually from 36.5 µM), for the others: at the top dose activity change, negative = inhibition, most hits filed as inhibitors; AID 720579; active = well fitted inhibition curve with a large enough effect; inconclusive = small, poorly fitted or top-dose-only effect; inactive = no such curve, though single readings can be large or run the other way; tested in A549 cells; note: nearly all actives have a fitted effect of over 35% in size; inactives centre near -10
Starred values were filed as active, the others as inactive. % is set by controls: 0 for no effect and ±100 for the full control effect; potency is the fitted concentration of half-maximal effect.

CC(C)CC(=O)NC(NC(=S)Nc1ccccc1)C(Cl)(Cl)Cl (centres undefined) was read as Vaccinia Venus -17% and Vaccinia mCherry -25%.
`COC(=O)C(O)(c1ccc(N(C)C(=O)COc2ccccc2)cc1)C(F)(F)F` (centres undefined) gave Vaccinia Venus -5% and Vaccinia mCherry inactive.
`COc1ccccc1/C=C/C(=O)Nc1cccc(C(C)=O)c1` gave Vaccinia Venus -7% and Vaccinia mCherry inactive.
For CCOc1ccc(CCNC(=O)COC(=O)c2ccc(Cl)nc2)cc1OCC the results were Vaccinia Venus -19% and Vaccinia mCherry -26%.
`CCc1nn(CC(=O)N2CCN(c3ccc(OC)cc3)CC2)c(=O)c2cc3sccc3n12` gave Vaccinia Venus -15% and Vaccinia mCherry -8%.
`CC(=O)c1cc(C(=O)N2CCCC(C(=O)c3ccc(Cl)cc3)C2)cs1` (centres undefined) gave Vaccinia Venus -6% and Vaccinia mCherry -3%.
Screening O=C(NCc1ccccc1Cl)c1cc2c(s1)-c1ccccc1SC2 returned Vaccinia Venus -9% and Vaccinia mCherry -6%.
O=c1[nH]ncc(N2CCCCCC2)c1Cl was read as Vaccinia Venus -8% and Vaccinia mCherry inactive.
Screening Cc1ccc(C)c(S(=O)(=O)NCC(c2ccc(N(C)C)cc2)N2CCOCC2)c1 (centres undefined) returned Vaccinia Venus -6% and Vaccinia mCherry -9%.
`CC(=O)N=C1SC2CS(=O)(=O)CC2N1c1c(Cl)cccc1Cl` (centres undefined) gave Vaccinia Venus -23%.
`Cc1cccc(C)c1NC(=O)CN(C)C(=O)c1ccc2nc[nH]c2c1` gave Vaccinia Venus -13% and Vaccinia mCherry inactive.
`COc1ccc(CCN2C(=O)C3C4C=CC(C5CC45)C3C2=O)cc1OC` (centres undefined) gave Vaccinia Venus 5% and Vaccinia mCherry 10%.
For Cc1ccc(NC(=O)c2ccc(CNS(=O)(=O)c3cccc(C(F)(F)F)c3)cc2)cc1 the results were Vaccinia Venus -7%.
CCc1ccc(NC(=O)Cn2c(=O)oc3cc(S(=O)(=O)NCc4ccccc4)ccc32)cc1 was read as Vaccinia Venus inconclusive and Vaccinia mCherry inconclusive.
For CCC(=O)Nc1ccc(NC(=O)CSc2nc3cc4c(cc3cc2C)CCC4)cc1 the results were Vaccinia Venus -1% and Vaccinia mCherry -11%.
For Cn1c(=O)[nH]c(=O)c2c1nc(NCCN)n2CCOc1ccccc1 the results were Vaccinia Venus -14% and Vaccinia mCherry 0%.
CCC(C)Sc1ccc([C@H]2N[C@@](C)(C(=O)OC)[C@H]3C(=O)N(CC)C(=O)[C@@H]23)cc1OC (some centres undefined) was read as Vaccinia Venus -18% and Vaccinia mCherry inactive.
Screening COc1ccc(-n2c(O)c(/C=N/NS(=O)(=O)c3cc(C)ccc3C)c3ccccc3c2=O)cc1OC returned Vaccinia mCherry 26%.
For COc1cccc(CN2Cc3cccc4c3[C@H](C=CC4)CC2=O)c1 the results were Vaccinia Venus -22% and Vaccinia mCherry -3%.
`COc1ccccc1C(=O)Nc1ccc(C(=O)OCc2cc(=O)n3c4c(sc3n2)CCCC4)cc1` gave Vaccinia Venus -16% and Vaccinia mCherry -23%.
Cc1ccc(C)n1-c1nnc(N2CCCC(C(=O)NCc3ccc(F)cc3)C2)s1 (centres undefined) was read as Vaccinia Venus -13% and Vaccinia mCherry -18%.
For CC(C)c1ccc(Nc2nnc(SC3CCOC3=O)s2)cc1 (centres undefined) the results were Vaccinia Venus 1% and Vaccinia mCherry -7%.
`Cc1nc(C(F)(F)F)c(C(=O)N/N=C(\N)c2ccccn2)s1` gave Vaccinia Venus inconclusive and Vaccinia mCherry 2.5µM*.
COCCn1nnnc1SCC(=O)Nc1ccc2c(c1)OCO2 was read as Vaccinia Venus -6% and Vaccinia mCherry inactive.
Screening Cc1nc2nc(SCC(=O)NCCc3ccc(Cl)cc3)nn2c(C)c1Cc1c(F)cccc1Cl returned Vaccinia Venus -2% and Vaccinia mCherry -17%.
Screening COc1cccc(CNc2ncnc3onc(-c4ccc(F)cc4)c23)c1 returned Vaccinia Venus -14% and Vaccinia mCherry -12%.
Screening Cc1c(NC(=O)C(C)Oc2ccccc2F)c(=O)n(-c2ccccc2)n1C (centres undefined) returned Vaccinia Venus 0% and Vaccinia mCherry inactive.
Screening Cc1ccc(-n2c(SCC(=O)Nc3cc(C)on3)nc3c([nH]c4ccccc43)c2=O)cc1 returned Vaccinia Venus -6% and Vaccinia mCherry -11%.
For COc1cc(S(=O)(=O)N2CCCCCC2)ccc1Cl the results were Vaccinia Venus -9% and Vaccinia mCherry -18%.
`CC(=O)C1=C(c2ccccc2)NC(=O)NC1c1ccccc1OCC#N` (centres undefined) gave Vaccinia Venus 2% and Vaccinia mCherry -12%.
`O=C(Nc1ccccc1)c1ccc(NCCc2ccccc2)c([N+](=O)[O-])c1` gave Vaccinia Venus -16% and Vaccinia mCherry -13%.
Screening COc1ccc(OC)c(/C=N/NC(=O)CC2C(=O)NN=C2C)c1 (centres undefined) returned Vaccinia Venus 1% and Vaccinia mCherry -9%.
Screening COc1ccc(C(O)(c2ccccc2OC)C(CN2CCOCC2)c2ccccc2)cc1 (centres undefined) returned Vaccinia Venus -22% and Vaccinia mCherry -25%.
`CCOC(=O)N1CCN(C(=O)C2CCC(CNS(=O)(=O)c3ccccc3)CC2)CC1` (centres undefined) gave Vaccinia Venus -15%.
O=C(Nc1nncs1)c1cccc(S(=O)(=O)N2CCCC2)c1 was read as Vaccinia Venus -4% and Vaccinia mCherry -9%.
O=C(NCCc1c[nH]c2ccccc12)Nc1cccc2ccccc12 was read as Vaccinia Venus -30% and Vaccinia mCherry inactive.
Screening O=C(O)CNS(=O)(=O)c1cccc(Cl)c1 returned Vaccinia Venus 3% and Vaccinia mCherry -12%.
`CC1=NN(c2cccc([N+](=O)[O-])c2)C(=O)C1` gave Vaccinia Venus -9% and Vaccinia mCherry 1%.
`CC(=O)c1ccc(NC(=O)CSc2nc(-c3cccc(F)c3)nc3c2c(=O)n(C)c(=O)n3C)cc1` gave Vaccinia Venus -14% and Vaccinia mCherry -11%.
Screening COc1cccc(-n2c(CN3CCN(c4ccc(C)cc4)C(C)C3)nc3ccc([N+](=O)[O-])cc3c2=O)c1 (centres undefined) returned Vaccinia Venus 3% and Vaccinia mCherry 0%.
For COc1ccc(OCCCC(=O)Nc2nnc(C3CCCO3)s2)cc1 (centres undefined) the results were Vaccinia Venus -7% and Vaccinia mCherry 0%.
Screening CC(C)N(C(=O)NC(=O)NCC1CCCO1)S(C)(=O)=O (centres undefined) returned Vaccinia Venus -7% and Vaccinia mCherry -9%.
C#CC(C)(C)NC(=O)CSc1nc2c(c(=O)n(C)c(=O)n2C)n1CCCC was read as Vaccinia Venus 9% and Vaccinia mCherry -1%.
Screening Cc1csc(N2CCCC2c2nc3cc(Cl)c(N4CCCCC4)cc3n2CCCO)n1 (centres undefined) returned Vaccinia Venus -5% and Vaccinia mCherry -2%.
`COc1ccc(N(CC(=O)NCCc2ccc(OC)c(OC)c2)S(=O)(=O)c2ccc(OC)c(OC)c2)cc1` gave Vaccinia Venus -14% and Vaccinia mCherry inactive.
For COc1cccc(C(=O)Nc2ccc(N3CCN(C(=O)c4ccco4)CC3)cc2)c1 the results were Vaccinia Venus -28% and Vaccinia mCherry inconclusive.
For COc1ccc(NC(=O)CC2C(=O)N(c3ccccc3)C(=O)N2Cc2cccnc2)cc1 (centres undefined) the results were Vaccinia Venus -5% and Vaccinia mCherry -3%.
For O=C(O)Cc1ccc(NS(=O)(=O)c2ccccc2Cl)cc1 the results were Vaccinia Venus 2% and Vaccinia mCherry 13%.
CC1=CC(=C2C(=O)c3ccccc3C2=O)C=C(C)N1C was read as Vaccinia Venus -20% and Vaccinia mCherry -22%.
Screening N#Cc1ccccc1NC(=O)C1CC(=O)N(c2ccc3c4c(cccc24)CC3)C1 (centres undefined) returned Vaccinia Venus 2% and Vaccinia mCherry -5%.
`CCOC(=O)c1nnn(-c2nc(N(C)C)nc(N(C)C)n2)c1C` gave Vaccinia Venus 1% and Vaccinia mCherry -3%.
Screening N#Cc1c(NC(=O)COC(=O)C2=COCCO2)sc2c1CCCC2 returned Vaccinia Venus -20% and Vaccinia mCherry -17%.
O=[N+]([O-])c1ccc(Nc2nc(NCCN3CCOCC3)nc(Nc3ccc(Cl)cc3)n2)cc1 was read as Vaccinia Venus -29% and Vaccinia mCherry -25%.
Screening COc1ccc(-c2cnc(C(O)c3ccc(OC)c(F)c3)[nH]2)cc1 (centres undefined) returned Vaccinia Venus -5% and Vaccinia mCherry inconclusive.
Screening CC(C)(C)NC(=O)N1CCn2cccc2C1c1ccccc1F (centres undefined) returned Vaccinia Venus 11% and Vaccinia mCherry -25%.
Screening COc1ccc([C@H]2C[C@@H](O)[C@H](n3cc(C4CC4)nn3)CN2C(=O)C2CCCCC2)cc1 returned Vaccinia Venus -15% and Vaccinia mCherry inactive.
For NC(=O)NC[C@@H]1CC[C@@H](Cc2ccc(-c3ccccc3)cc2)O1 the results were Vaccinia Venus -13% and Vaccinia mCherry -29%.
For COc1ccc(C2/C(=C(/O)c3ccccc3)C(=O)C(=O)N2CCO)cc1 (centres undefined) the results were Vaccinia Venus 9% and Vaccinia mCherry -2%.
Screening S=c1[nH]nc(-c2cccc(Cl)c2)n1/N=C/c1ccco1 returned Vaccinia Venus -11% and Vaccinia mCherry -14%.
For CCOc1ccc(C(=O)Nc2cccc(C(C)=O)c2)cc1[N+](=O)[O-] the results were Vaccinia Venus -14% and Vaccinia mCherry -13%.

A stretch taken from the entries so far:
For O=C(O)Cc1ccc(NS(=O)(=O)c2ccccc2Cl)cc1 the results were Vaccinia Venus 2% and Vaccinia mCherry 13%.
CC1=CC(=C2C(=O)c3ccccc3C2=O)C=C(C)N1C was read as Vaccinia Venus -20% and Vaccinia mCherry -22%.
Screening N#Cc1ccccc1NC(=O)C1CC(=O)N(c2ccc3c4c(cccc24)CC3)C1 (centres undefined) returned Vaccinia Venus 2% and Vaccinia mCherry -5%.
`CCOC(=O)c1nnn(-c2nc(N(C)C)nc(N(C)C)n2)c1C` gave Vaccinia Venus 1% and Vaccinia mCherry -3%.
Screening N#Cc1c(NC(=O)COC(=O)C2=COCCO2)sc2c1CCCC2 returned Vaccinia Venus -20% and Vaccinia mCherry -17%.
O=[N+]([O-])c1ccc(Nc2nc(NCCN3CCOCC3)nc(Nc3ccc(Cl)cc3)n2)cc1 was read as Vaccinia Venus -29% and Vaccinia mCherry -25%.
Screening COc1ccc(-c2cnc(C(O)c3ccc(OC)c(F)c3)[nH]2)cc1 (centres undefined) returned Vaccinia Venus -5% and Vaccinia mCherry inconclusive.
Screening CC(C)(C)NC(=O)N1CCn2cccc2C1c1ccccc1F (centres undefined) returned Vaccinia Venus 11% and Vaccinia mCherry -25%.
Screening COc1ccc([C@H]2C[C@@H](O)[C@H](n3cc(C4CC4)nn3)CN2C(=O)C2CCCCC2)cc1 returned Vaccinia Venus -15% and Vaccinia mCherry inactive.
For NC(=O)NC[C@@H]1CC[C@@H](Cc2ccc(-c3ccccc3)cc2)O1 the results were Vaccinia Venus -13% and Vaccinia mCherry -29%.
For COc1ccc(C2/C(=C(/O)c3ccccc3)C(=O)C(=O)N2CCO)cc1 (centres undefined) the results were Vaccinia Venus 9% and Vaccinia mCherry -2%.

Carrying on.
For COc1ccc(Nc2ccc(S(=O)(=O)N3CCCCC3)cc2[N+](=O)[O-])cc1 the results were Vaccinia Venus -3% and Vaccinia mCherry -6%.
`Cc1ccccc1OCC(=O)NNC(=O)CCN1C(=O)c2ccccc2C1=O` gave Vaccinia Venus -13% and Vaccinia mCherry inactive.
For O=C(Cc1ccccc1)NC(CSSCC(NC(=O)Cc1ccccc1)C(=O)O)C(=O)O (centres undefined) the results were Vaccinia Venus 7% and Vaccinia mCherry -22%.
Screening C=C(C)C(=O)Nc1ccc(OC(F)(F)C(F)F)c(NC(=O)C(=C)C)c1 returned Vaccinia Venus -14% and Vaccinia mCherry -15%.
`Cc1cccc(NC(=O)c2cccnc2)c1` gave Vaccinia Venus -5% and Vaccinia mCherry -18%.
O=C(Cc1cccc(NC(=O)C2CCCN(C(=O)c3ccccc3)C2)c1)Nc1cccc(C(=O)N2CCOCC2)c1 (centres undefined) was read as Vaccinia Venus -3% and Vaccinia mCherry inactive.
Cc1ccc(C2NC(=O)c3c(sc(C)c3C)N2)c(O)c1 (centres undefined) was read as Vaccinia Venus -5% and Vaccinia mCherry 2%.
Cc1ccc(/C=N/NC(=O)CN2CCN(S(=O)(=O)c3ccc(Br)cc3)CC2)s1 was read as Vaccinia Venus -22% and Vaccinia mCherry -2%.
`Cc1c(NC(=O)COc2cccc(Cl)c2Cl)c(=O)n(-c2ccccc2)n1C` gave Vaccinia Venus -11% and Vaccinia mCherry -13%.
For CC1CCc2nn(CC(=O)NCCN3CCOCC3)cc2C1 (centres undefined) the results were Vaccinia Venus 5% and Vaccinia mCherry -3%.
O=C(NCCCn1ccnc1)c1nn2c(C(F)(F)F)cc(-c3ccc(Br)cc3)nc2c1Cl was read as Vaccinia Venus inconclusive and Vaccinia mCherry inconclusive.
Screening CCC(C#N)(CC)P(=S)(c1ccccc1)c1ccccc1 returned Vaccinia Venus -17% and Vaccinia mCherry -2%.
Screening C=CCN(N=Nc1cccc([N+](=O)[O-])c1)c1cccc([N+](=O)[O-])c1 returned Vaccinia Venus -8% and Vaccinia mCherry inactive.
CC(C)OCCCNC(=O)c1c(N)n(Cc2cccs2)c2nc3ccccc3nc12 was read as Vaccinia Venus 28µM*.
`COc1ccc2c(c1)OC13CCCCC1C2C(C(=O)c1ccccc1)C(=O)N3` (centres undefined) gave Vaccinia Venus -17% and Vaccinia mCherry -7%.
Screening Cc1ccc(NC2CNC(=O)NC2=O)cc1C (centres undefined) returned Vaccinia Venus -6% and Vaccinia mCherry inconclusive.
